PKD1 inh – blocks activity of human protein kinase D1 | Q15139 | PKD1 kinase fluorescence polarization assay | inhibition, %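 (about 10 µM by stock and volumes)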 | 0.056% of 200,000 active;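 active = inhibition of 50% or more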;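 also: controls were vehicle for no effect and a reference inhibitor for full effect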
RGS16-Gao – RGS16-Galphao interaction regulator (human) | O15492+P09471 | binding response (% of control), % at 10 µM | AID 1441 | bead-based flow cytometry RGS16-Galphao binding, fluorescence; actives lie on both sides | 0.38% of 220,000 active;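 active = below 25% or above 175%, edge rows of some plates excepted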;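 also: Galphao activated by GDP with aluminum fluoride before binding; 100% = wells without compound and 0% = beads without RGS; some results beyond the cut were filed as inactive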
Target sequence (O15492 whole entry, looked up): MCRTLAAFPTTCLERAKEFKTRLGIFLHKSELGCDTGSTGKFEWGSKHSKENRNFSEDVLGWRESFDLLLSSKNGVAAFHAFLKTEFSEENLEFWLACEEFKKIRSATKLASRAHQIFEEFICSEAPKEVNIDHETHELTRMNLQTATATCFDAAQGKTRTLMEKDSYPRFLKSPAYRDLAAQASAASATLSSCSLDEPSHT
Target sequence (P09471 whole entry, looked up): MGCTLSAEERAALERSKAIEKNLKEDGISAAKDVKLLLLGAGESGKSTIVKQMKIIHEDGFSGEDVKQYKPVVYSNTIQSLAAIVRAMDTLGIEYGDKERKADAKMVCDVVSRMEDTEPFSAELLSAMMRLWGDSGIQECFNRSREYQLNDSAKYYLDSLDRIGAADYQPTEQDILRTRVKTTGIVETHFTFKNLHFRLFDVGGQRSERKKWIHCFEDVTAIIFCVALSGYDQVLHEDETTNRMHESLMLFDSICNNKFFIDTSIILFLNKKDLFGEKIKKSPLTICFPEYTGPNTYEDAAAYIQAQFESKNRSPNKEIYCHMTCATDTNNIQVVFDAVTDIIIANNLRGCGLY
GALR2 ag – GALR2 (human) receptor agonism | GALR2-expressing cells, agonist activation read-out | 0.48% of 140,000 active | activation, %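 (tested at 5 µM)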;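 active = above mean plus 3 SD of all compounds, about 5% in these data, not always enough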;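 also: 0% = vehicle buffer wells and 100% = reference agonist at full effect; tested in CHO reporter cells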
Target sequence (O43603 whole entry, looked up): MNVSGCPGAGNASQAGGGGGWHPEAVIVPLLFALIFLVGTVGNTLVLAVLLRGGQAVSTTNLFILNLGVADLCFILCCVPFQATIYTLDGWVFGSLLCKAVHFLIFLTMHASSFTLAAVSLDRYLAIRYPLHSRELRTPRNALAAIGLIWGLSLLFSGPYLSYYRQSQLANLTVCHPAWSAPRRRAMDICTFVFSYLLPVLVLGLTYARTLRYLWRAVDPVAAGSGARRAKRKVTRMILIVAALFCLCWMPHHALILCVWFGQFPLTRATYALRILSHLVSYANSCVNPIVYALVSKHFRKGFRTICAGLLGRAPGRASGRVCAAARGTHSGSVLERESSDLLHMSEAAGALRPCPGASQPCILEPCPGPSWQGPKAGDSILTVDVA
HSV augment – increases HSV replication in cells; HSV replication augmentation in cells, fold increase; AID 1956; 0.005% of 220,000 active; maximum fold increase;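 active = peak rise of 1.5-fold or more in the series; tested in PC3 cells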;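 also: first round at 10 µM; read as green reporter fluorescence; hits show the peak of a series up to 25 µM; 1 = signal of infected wells without compound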
INS promoter inh – TRM-6 insulin promoter activity inhibition; TRM-6 cells (human fetal islet line), insulin promoter-eGFP reporter, imaging; reporter expression induced with tamoxifen; inhibition, % at 2 µM; 0.9% of 130,000 active; AID 1273;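 active = inhibition above the mean plus 3 SD, with well images judged a real hit on visual review, cut at about 60% in these data, passing the limit was not always enough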
INS promoter inh cell count – recorded beside INS promoter inh, whose call it bears; normalized cell count, %; measured here: cell count, toxicity; reference of the scale not given here;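 cells exposed to compound for 48 h; stained nuclei by imaging scaled within each plate; lower means fewer cells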
HSV augment primary fold – further read-out of HSV augment, marked with its call; fold increase; compound at 10 µM; measured here: primary screen fold increase 10 uM; tested in PC3 cells;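 GFP signal in the first replicate; 1 = infected wells without compound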
* marks the source's active call; other numbers are inactive results; i = inactive; · = not tested or not shown.

SMILES | PKD1 inh | RGS16-Gao | GALR2 ag | HSV augment | HSV augment primary fold | INS promoter inh | INS promoter inh cell count
COc1ccc(Cc2nnc(SCc3c(C)noc3C)n2C2CCCCC2)cc1OC | -3 | 101 | -0.1 | i | 1 | · | ·
Cc1sc2nc(CN3CCOCC3)nc(NS(=O)(=O)c3ccccc3)c2c1C | 2 | 106 | -2.5 | i | 1 | 9 | 249
Cc1nn(C)cc1-c1n[nH]c(=S)n1-c1ccc(F)cc1 | -5 | 106 | -1.2 | i | 1.1 | · | ·
COc1cccc(CN(CC(=O)NCC2CCCO2)C(=O)CCC(=O)Nc2cc(C)on2)c1 (centres undefined) | -6 | 99 | 0.3 | i | 0.91 | 17 | 87
CCOc1ccc(C(=O)CSc2nnc(N)s2)cc1 | 4 | 101 | -3.0 | i | 1.1 | · | ·
Cc1oc(C(C)(C)C)cc1C(=O)Nc1ccc2c(c1)OCCO2 | -3 | 98 | -2.1 | · | · | 24 | 148
CSc1nc2sc3c(c2c(=O)n1C1CCCCC1)CCN(C)C3 | -3 | 104 | -1.9 | i | 1 | -12 | 129
Cc1ccc(CCCOC(=O)C[N+]2(C)CCCC2)cc1 | 4 | 110 | -1.4 | i | 0.96 | -13 | 88
O=C(NC(=S)Nn1cnnc1)c1cccc(Br)c1 | 2 | 94 | -0.6 | i | 1 | · | ·
COc1cc2c(cc1OC)CN(CC(=O)Nc1ccc(C)cc1)CC2 | 5 | 94 | 0.1 | i | 1 | 9 | 91
CC(C)CNS(=O)(=O)c1cc(C(=O)N2CC(C)OC(C)C2)c(Cl)cc1Cl (centres undefined) | 0 | 105 | -0.1 | i | 0.81 | -38 | 164
CCC1=C(OC(=O)N(CC)CC)N2C(=O)OC(=NCCOC)[C@]2(Cc2ccccc2)[C@H]2C1=CC[C@H]1C(=O)N(CC(=O)OC)C(=O)[C@H]12 | · | 102 | · | i | 0.87 | · | ·
COC(=O)c1ccc(COC(=O)c2ccc(S(=O)(=O)N3CCC(C)CC3)cc2)o1 | -3 | 100 | -0.2 | i | 0.87 | -4 | 197
CCOC(=O)CNC(=O)CSc1nc2sc(C)c(C)c2c(=O)n1C | 1 | 104 | -2.3 | i | 0.87 | -10 | 161
O=C(NCc1cccnc1)C(=O)Nc1nc2ccccc2s1 | -9 | 103 | · | i | 1.1 | 55 | 131
CCn1cc(C(=O)NCC2COc3ccccc3O2)c2cc(OC)c(OC)cc2c1=O (centres undefined) | -4 | 90 | 0.9 | i | 0.92 | -9 | 76
COC(=O)c1ccc(COc2cc([N+](=O)[O-])cc3cccnc23)o1 | -6 | 77 | · | i | 1 | 40 | 90
CN(C)CCCn1c(SCC(=O)Nc2nc(-c3cccc(Br)c3)cs2)nc2ccccc2c1=O | · | 102 | · | i | 0.58 | · | ·
O=C1N(Cc2cccnc2)C[C@@H]2C[C@@H](c3ccc(-c4ccccc4)cc3)N3CCC[C@@]123 | -1 | 107 | · | i | 0.82 | · | ·
O=C(NC1CC2CCC1C2)C1COc2ccccc2O1 (centres undefined) | -7 | 102 | -1.4 | i | 1.2 | -25 | 144
CCCn1c(CN2CCN(C(=O)c3ccco3)CC2)nc2c1c(=O)n(C)c(=O)n2C | 6 | 96 | -1.1 | i | 1 | · | ·
COC(=O)c1cc(OC)c(OC)cc1NC(=O)Nc1ccc(OC)cc1OC | -2 | 100 | -3.4 | i | 0.97 | -70 | 85
Cc1ccc2c(c1)N(CC(=O)NCc1ccco1)C(=O)CO2 | -7 | 98 | -1.5 | i | 1 | 38 | 122
O=C(Nc1cccc2nsnc12)c1ccc2c(c1)OCCO2 | -11 | 101 | 0.3 | i | 0.94 | · | ·
CCOC(=O)/C=C/C(=O)OCC(=O)Nc1cccc(Br)c1 | -8 | 104 | · | i | 0.86 | · | ·
CCc1cccc(C)c1NC(=O)CSc1nc(-c2ccccc2F)nc2nc[nH]c12 | -6 | 159 | 4.5 | i | 0.97 | 23 | 53
C=CCOC(=O)C1=C(C)NC(SCC(=O)OCC)=C(C#N)C1c1ccc(O)c(OC)c1 (centres undefined) | -7 | 101 | -1.0 | i | 1.1 | · | ·
COc1ccc(C(O)P(=O)(O)CCc2ccccc2)cc1 (centres undefined) | -4 | 101 | -2.5 | i | 1 | -12 | 117
COc1ccccc1-n1c(=S)sc2c(=O)n(Cc3ccco3)c(SC)nc21 | -15 | 155 | -0.7 | i | 0.82 | · | ·
O=C(NS(=O)(=O)c1ccccc1)c1ccccc1 | -11 | 101 | -1.2 | i | 1 | · | ·
COc1cc(NC(=S)NCc2ccc(S(N)(=O)=O)cc2)cc(OC)c1 | 0 | 103 | · | i | 0.97 | 17 | 96
COc1cccc(OC)c1C(=O)OCC(=O)/C(C#N)=C(\C)N | 3 | 99 | · | i | 0.94 | 14 | 104
CCOC(=O)CSc1nc2ccc(C)cc2cc1C#N | 2 | 103 | -0.9 | i | 1.1 | · | ·
CCCn1c(SCC(=O)Nc2cc(C)on2)nc2c1c(=O)n(C)c(=O)n2C | -13 | · | -1.4 | i | 0.95 | -1 | 35
COC(=O)c1cccc(Oc2cccc(Cl)n2)c1 | -6 | 98 | · | i | 0.99 | · | ·
CCOC(=O)C1=NOC(C(=O)NN(C)c2ncc(C(F)(F)F)cc2Cl)C1 (centres undefined) | 9 | 101 | · | i | 1 | -19 | 105
COc1ccc(C(=O)COc2cccc(NC(=O)c3ccco3)c2)cc1 | 1 | 91 | -2.7 | i | 0.91 | -294 | 54
Cc1cc(C)c(C(=O)COC(=O)Cn2cnnn2)cc1C | -20 | 102 | 0.1 | i | 0.89 | -46 | 20
CC(=O)Nc1cc(NC(C)=O)c2nc(N)sc2c1 | 1 | 102 | -3.6 | i | 0.93 | -6 | 104
CCN(CC)CC(=O)N1c2ccccc2Oc2c(c(=O)n(C)c(=O)n2C)C1c1cccc([N+](=O)[O-])c1 (centres undefined) | · | 90 | · | i | 0.88 | · | ·

Reprinted from the part before: six entries, then new ones.
SMILES | PKD1 inh | RGS16-Gao | GALR2 ag | HSV augment | HSV augment primary fold | INS promoter inh | INS promoter inh cell count
COC(=O)c1cccc(Oc2cccc(Cl)n2)c1 | -6 | 98 | · | i | 0.99 | · | ·
CCOC(=O)C1=NOC(C(=O)NN(C)c2ncc(C(F)(F)F)cc2Cl)C1 (centres undefined) | 9 | 101 | · | i | 1 | -19 | 105
COc1ccc(C(=O)COc2cccc(NC(=O)c3ccco3)c2)cc1 | 1 | 91 | -2.7 | i | 0.91 | -294 | 54
Cc1cc(C)c(C(=O)COC(=O)Cn2cnnn2)cc1C | -20 | 102 | 0.1 | i | 0.89 | -46 | 20
CC(=O)Nc1cc(NC(C)=O)c2nc(N)sc2c1 | 1 | 102 | -3.6 | i | 0.93 | -6 | 104
CCN(CC)CC(=O)N1c2ccccc2Oc2c(c(=O)n(C)c(=O)n2C)C1c1cccc([N+](=O)[O-])c1 (centres undefined) | · | 90 | · | i | 0.88 | · | ·
CSc1nc2nc3c(cc2c(=O)n1-c1cccc(C)c1)COC(C)(C)C3 | · | 92 | · | i | 0.79 | · | ·
O=C(CNCC1CCCCC1)Nc1ccccc1N1CCCCC1 | 1 | 102 | -0.9 | i | 0.92 | 23 | 148
CC(C)C(OC(=O)/C=C/c1ccc2c(c1)OCO2)C(=O)NC(N)=O (centres undefined) | -5 | 99 | · | i | 1.1 | · | ·
O=C(NCCOCC(F)(F)C(F)F)c1cc(F)c(F)cc1Cl | -4 | 104 | -1.1 | i | 0.99 | 16 | 91
O=C(O)c1ccccc1/C=N/NC(=O)c1cc(-c2ccco2)nc2ccccc12 | · | 97 | · | i | 1.1 | · | ·
CC1(OC(=O)CCc2ccccc2)C(=O)C=C2C=C(c3ccc(C#N)cc3)N(C3CC3)C=C2C1=O (centres undefined) | · | 103 | · | i | 0.91 | · | ·
CCN(CC)C(=O)c1ccccc1NC(=O)c1ccccc1SC | 1 | 96 | · | i | 0.93 | · | ·
C/C(=N/NC(=O)c1cc(C2CC2)[nH]n1)c1cccs1 | -2 | 104 | -3.1 | i | 0.88 | -26 | 90
COc1cc(/C=N/NC(=O)C(Cc2c[nH]c3ccccc23)NC(=O)OCc2ccccc2)cc([N+](=O)[O-])c1O (centres undefined) | 8 | 151 | 1.1 | i | 0.89 | -23 | 118
CCOC(=O)C1(CCOc2ccccc2)CCN(Cc2cc(OC)c3c(c2)OCO3)CC1 | 2 | 100 | · | i | 0.8 | · | ·
COc1ccc(-c2cc(OC)c3ccccc3n2)cc1 | -3 | 101 | 0.0 | i | 0.81 | 31 | 103
COC(=O)CCc1n[nH]c(=O)[nH]c1=O | 0 | 92 | -1.6 | i | 0.99 | · | ·
CCOc1ccc(CN2CCCN(C)CC2)cc1 | -3 | 98 | -0.7 | i | 0.87 | 0 | 139
CCOc1ccc(/C=N/n2c(SC)nnc2-c2ccccc2)cc1OCC | -10 | 117 | 0.6 | i | 0.92 | 23 | 104
Cc1csc(SC(C)C(=O)NCc2ccc3c(c2)OCO3)n1 (centres undefined) | -2 | 99 | · | i | 1.4 | 24 | 116
O=C(CCl)Nc1cccc(S(=O)(=O)N2CCCCCC2)c1 | -2 | 83 | -1.0 | i | 0.93 | · | ·
CC(C(=O)Nc1ccccc1C(=O)N1CCCC1)n1nnc2ccccc21 (centres undefined) | 3 | 114 | -1.1 | i | 1 | · | ·
CSc1ccc(C(=O)C2CCCN(C(=O)c3nn(C)c(=O)c4ccccc34)C2)cc1 (centres undefined) | -6 | 102 | · | i | 1.3 | · | ·
Cc1ccc(N2C(=O)N(CC(=O)N(C)Cc3ccccc3)C(=O)C2C)cc1 (centres undefined) | 4 | 103 | -1.2 | i | 0.91 | -66 | 43
C=CCn1c(SCC(=O)CC(=O)OCC)nc2cc(C(=O)N3CCC(C(N)=O)CC3)ccc2c1=O | 1 | 103 | · | i | 0.98 | · | ·

Complete entries, looked up by structure. Order of screens: PKD1 inh, RGS16-Gao, GALR2 ag, HSV augment, HSV augment primary fold, INS promoter inh, INS promoter inh cell count
Results for CSc1ccc(C(=O)C2CCCN(C(=O)c3nn(C)c(=O)c4ccccc34)C2)cc1 (centres undefined) → -6, 102, ·, i, 1.3, ·, ·
Results for Cc1csc(SC(C)C(=O)NCc2ccc3c(c2)OCO3)n1 (centres undefined) → -2, 99, ·, i, 1.4, 24, 116

The results go on:
SMILES | PKD1 inh | RGS16-Gao | GALR2 ag | HSV augment | HSV augment primary fold | INS promoter inh | INS promoter inh cell count
COc1cccc(Cn2c(Oc3ccccc3)nc3c2c(=O)n(C)c(=O)n3C)c1 | 0 | -247* | -0.1 | i | 0.99 | · | ·
COc1ccc(NC(=O)COC(=O)Cn2c(C)nc3ccccc32)cc1OC | -10 | 104 | -3.1 | i | 0.9 | 9 | 69
O=C(NC(=S)N1CCN(c2ccc(C(F)(F)F)cc2[N+](=O)[O-])CC1)c1cccs1 | -1 | 105 | -1.7 | i | 0.92 | · | ·
CCN(CC)S(=O)(=O)c1ccc(Cl)c(NC(C)=O)c1 | -11 | 96 | · | i | 0.99 | 9 | 113
CCOC(=O)C1(Cc2ccccc2C)CCCN(C(=O)c2cc(CC)nn2C)C1 (centres undefined) | 3 | 103 | · | i | 1 | · | ·
COC(=O)C1C(=O)/C(=C/N(C)C)C(=O)CC1(C)C (centres undefined) | -4 | 102 | · | i | 0.92 | -26 | 107
CCOC(=O)C1(CCOC)CCN(Cc2ccncc2)CC1 | -1 | 102 | · | i | 1 | · | ·
S=C(NC1CCCCC1)N1CCN(c2ncccn2)CC1 | -2 | 104 | · | i | 0.99 | · | ·
NS(=O)(=O)c1ccc(CNC(=O)/C=C/c2ccccc2)cc1 | -5 | 105 | -0.3 | i | 0.96 | -2 | 152
COC(CNC(=O)[C@H](CSCc1ccccc1)N1Cc2ccccc2C1=O)OC | 5 | 102 | · | i | 1 | 13 | 111
CCc1ccc2nc(NC(=O)c3cc(C)on3)sc2c1 | 2 | 93 | -1.8 | i | 0.76 | -6 | 85
Cc1ccccc1NC(=S)NC(NC(=O)C(C)(C)C)C(Cl)(Cl)Cl (centres undefined) | -11 | 95 | -0.1 | i | 0.85 | -29 | 59
O=C(Nc1ccc(OCC(=O)N2CCN(S(=O)(=O)c3ccccc3)CC2)cc1)c1ccco1 | -1 | 88 | -0.5 | i | 1.1 | · | ·
COc1ccc2oc(-c3ccc(C)c(NC(=O)c4ccc(N5CCOCC5)c([N+](=O)[O-])c4)c3)nc2c1 | -13 | 103 | -1.6 | i | 0.79 | -27 | 63
Cc1ccc(-c2nnc(SCC(=O)NC3CCCc4ccccc43)n2N)cc1 (centres undefined) | 1 | 104 | -0.1 | i | 1.1 | -3 | 145
O=C1c2ccccc2-c2nnc(-c3ccccc3)cc21 | -3 | 102 | -1.6 | i | 1.1 | 43 | 81
CCCNC(=O)COC(=O)c1cc(SC)ccc1Cl | -4 | 95 | -1.3 | i | 1 | 8 | 40
Cc1ccc(S(=O)(=O)N2CCN(C(=O)c3n[nH]c(=O)c4ccccc34)CC2)cc1 | 4 | 105 | · | i | 1.1 | · | ·
C/C(=N\NC(=O)CSc1nc2ccccc2s1)c1cccnc1 | · | 102 | · | i | 0.94 | · | ·

Screening data (PubChem)
